# TRPML1 agonist: qHTS for Agonists of the Human Mucolipin Transient Receptor Potential 1 (TRPML1). Mucolipin-1 (Homo sapiens), Q9GZU1. TRPML1-expressing cells, Ca2+ dye fluorescence, FDSS; host cell line not named in the record; reference of the full effect not given here. activation, % (no concentration beside the values). hit rate 0.12% among 410,000; in the data active = activation above about 50%; inconclusive = about 30% to 50%; inactive = below about 30%; note: 0% is about no effect; the text of the record puts the active cut at 80%
#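 In this qHTS format, compounds were pin-transferred onto Ca8-dye-loaded TRPML1-DL cells induced with Tet overnight, and intracellular Ca2+ fluorescence was recorded kinetically for 110 s after a 10 s baseline. A subsequent 4uM final 54-4 (EC80) addition followed by a second 110 s read served as the antagonist phase.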
# PINK1 expr mod: A Quantitative High throughput Screen to Identify Chemical Modulators of PINK1 Expression | hit rate 0.2% among 410,000 | Potency, µM (highest dose often 76.6 µM), without a hit: top-dose activation (PINK1 increase), most hits filed as activators | AID 624263, 2012 | PINK1 immunofluorescence, high-content cytometry, 24 h; active = well fitted activation curve with a large enough effect; inconclusive = small, poorly fitted or top-dose-only effect; inactive = flat fitted curve, though single readings scatter; cell line not stated here;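 note: potency is the fitted concentration of half-maximal effect; % of control where 0% means no effect; nearly all actives have a fitted effect of over 65% in size; a mitochondrial uncoupler was the plate control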
#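 A stable cell line was treated with compounds at 5 concentrations for 24 hours, with CCCP as control. PINK1 levels and mitochondrial localization were measured by immunofluorescence with mitochondrial, cell and nuclear markers after fixation, read by laser-scanning cytometry.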
# D2 agonist: Beta-Arrestin HTS for Positive Allosteric Modulators of the Human D2 Dopamine Receptor: Agonists; activation, % (no concentration beside the values); AID 624465, 2012; D(2) dopamine receptor (Homo sapiens), P14416; DiscoveRx PathHunter D2 beta-arrestin, luminescence, 90 min; 100% = 57 uM dopamine signal; hit rate 0.084% among 360,000; in the data active = activation above about 40%; inconclusive = about 15% to 40%; inactive = below about 15%; note: compound concentration not given in the record; the text of the record calls up to 30% inactive
#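 DiscoveRx PathHunter D2 beta-arrestin cells (2,100/well) attached overnight, then compound-stimulated 90 min at 37 C in HBSS/10 mM HEPES/0.1% Tween-20 buffer; beta-galactosidase complementation read by luminescence after 1 h at ambient temperature. Dopamine 57 uM final (EC100) as control.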
# Six1-Eya2 inh: qHTS Assay for Inhibitors of the Six1/Eya2 Interaction | hit rate 0.56% among 360,000 | activity change, % (test concentration not listed) | AID 651725, 2012 | Homeobox protein SIX1 (Homo sapiens) + Protein phosphatase EYA2 (Homo sapiens), … | AlphaScreen GST-Six1/His-Eya2 binding, biochemical; hits give low values; control for the full effect not named in the record; in the data active = activity change below about -65%; inconclusive = about -30% to -65%; inactive = above about -30%; note: % is set by controls: 0 for no effect and ±100 for the full control effect; compound concentration not given in the record
# Target sequence (O00167 whole entry, looked up): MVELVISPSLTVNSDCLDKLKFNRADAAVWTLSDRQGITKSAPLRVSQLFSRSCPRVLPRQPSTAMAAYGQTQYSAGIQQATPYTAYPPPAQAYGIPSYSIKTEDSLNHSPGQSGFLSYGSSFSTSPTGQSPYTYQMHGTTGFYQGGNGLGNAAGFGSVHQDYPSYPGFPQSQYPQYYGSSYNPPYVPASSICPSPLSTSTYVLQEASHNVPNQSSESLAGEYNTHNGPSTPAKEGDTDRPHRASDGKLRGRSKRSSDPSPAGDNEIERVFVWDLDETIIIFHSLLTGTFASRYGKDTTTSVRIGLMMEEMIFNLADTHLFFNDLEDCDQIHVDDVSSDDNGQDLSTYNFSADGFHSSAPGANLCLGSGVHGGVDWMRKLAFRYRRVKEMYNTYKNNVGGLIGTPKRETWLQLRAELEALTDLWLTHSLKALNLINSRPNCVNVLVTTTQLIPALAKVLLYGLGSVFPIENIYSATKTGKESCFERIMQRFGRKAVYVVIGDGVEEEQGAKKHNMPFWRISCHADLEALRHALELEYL
# Target sequence (Q15475 whole entry, looked up): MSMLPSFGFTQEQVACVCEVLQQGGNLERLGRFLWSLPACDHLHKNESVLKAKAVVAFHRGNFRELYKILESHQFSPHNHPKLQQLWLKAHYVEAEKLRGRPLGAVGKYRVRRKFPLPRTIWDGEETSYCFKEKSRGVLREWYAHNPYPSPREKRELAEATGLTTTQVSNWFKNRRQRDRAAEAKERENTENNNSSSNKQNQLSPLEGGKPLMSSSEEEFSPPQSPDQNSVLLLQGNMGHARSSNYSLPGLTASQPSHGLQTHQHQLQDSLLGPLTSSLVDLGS
#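 Six1/Eya2 binding was read as AlphaScreen signal after compounds were pinned into GST-Six1 plus His-tagged Eya2 (5X stock 250/500 nM) in pH 8.0 Tris/NaCl/TCEP buffer, beads added, then incubated 1 h, 37 C, dark.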
# CtBP-E1A inh: qHTS Assay for Inhibitors of the CtBP/E1A Interaction; AlphaScreen GST-E1A/His-CtBP binding, 1536-well; hits give low values; control for the full effect not named in the record; activity change, % (no concentration beside the values); hit rate 0.49% among 340,000; AID 651724, 2012; in the data active means activity change below about -65%; inconclusive means about -30% to -65%; inactive means above about -30%; note: % is set by controls: 0 for no effect and ±100 for the full control effect; compound concentration not given in the record
#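 In 5 uL wells, 23 nL compound meets equimolar GST-E1A and His-CtBP (5X stock 125 nM each) for 2 h, 37 °C. Beads (5X, 50 ug/mL) then 1 h, 37 °C, dark.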
# TRPML1 blocker: qHTS for Inhibitors of the Human Mucolipin Transient Receptor Potential 1 (TRPML1); hit rate 0.02% among 390,000; AID 624415, 2012; activity change, negative = inhibition, % (no concentration beside the values); Mucolipin-1 (Homo sapiens), Q9GZU1; TRPML1-inducible cells, Ca2+ dye fluorescence, FDSS; hits give low values; inhibition of EC80 agonist-evoked calcium signal; in the data active means activity change below about -50%; inconclusive means about -30% to -50%; inactive means above about -30%;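 note: stimulus is agonist 54-4 at its EC80 concentration; % is set by controls: 0 for no effect and ±100 for the full control effect; compound concentration not given in the record; the text of the record puts the active cut at -80%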
#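 TRPML1-DL cells, Tet-induced overnight (~16 h, 37 °C) at 1,500 cells/well, were loaded with Ca8 no-wash dye plus quencher for 45-90 min at room temperature. Compounds were pinned during FDSS kinetic reading; agonist 54-4 at EC80 (4 uM final) then added.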
# * hit, by the source's call; ? = inconclusive; / = no result given; & = joins results of further samples; [ ] = another dose, or the depositor's remark. An unsorted share of the library; about 1% have a hit in one of these screens.
SMILES,TRPML1 agonist,PINK1 expr mod,D2 agonist,Six1-Eya2 inh,CtBP-E1A inh,TRPML1 blocker
Cc1c(NC(=O)c2ccc(Br)s2)c(=O)n(-c2ccccc2)n1C,-0.9,1.5%,-5.8,7,0,-9
CCOc1cc(N2CCOCC2)c(OCC)cc1NC(=O)CSc1cccc[n+]1[O-],0.1,-1.8%,1.8,13,-4,5
COc1ccc(S(=O)(=O)Nc2cc3c(C(=O)OC(C)C)c(C)oc3c3ccccc23)cc1,25,0.0%,/,/,/,-11
Cc1cccc(N(C(=O)c2csnn2)C(C(=O)NC2CCCCC2)c2ccccn2)c1C (stereo not given),1.2,-0.2%,-5.3,6,29,-7
COc1cc2c(cc1OC)C1=C(C#N)COCN1CC2,-0.7,-0.8%,-2.5,-12,-6,-3
O=C(CSc1nc2c([nH]c3ccccc32)c(=O)n1-c1ccc(F)cc1)N1CCCc2ccccc21,0.0,-3.0%,/,/,/,-8
Cc1cc(Nc2ccc(C)c(F)c2)n2ncnc2n1,2.9,-2.0%,-1.3,-13,-10,44
O=C(c1cccnc1)n1nc(-c2ccco2)nc1NCc1cccs1,-0.3,1.4%,1.3,-3,5,12
CCN(CC(=O)NCc1cccnc1)S(=O)(=O)c1ccc(OC)cc1,0.5,-0.8%,-1.2,9,4,-20
CC(C)CCN(C(=O)Cc1ccc(Cl)c(Cl)c1)c1c(N)n(Cc2ccccc2)c(=O)[nH]c1=O,-0.7,-1.9%,-1.8,2,10,-12
O=C1Cc2ccccc2C(=O)N1OCc1ccc(Cl)cc1Cl,-0.5,0.6%,-0.9,6,1,15
Cc1ccc(CN(C(=O)c2sc3ccccc3c2Cl)C2CCS(=O)(=O)C2)cc1 (stereo not given),-0.3,-0.6%,-3.1,-5,-1,4
O=C(O)c1ccc2ccc3ccccc3c2c1,-0.6,-0.9%,-5.5,1,/,-6
COc1cc2ccccc2cc1C(=O)N(CCN(C)C)c1nc2c(F)cccc2s1,-0.6,2.5%,-1.9,?,?,-7
Cc1ccc(C(=O)N2CCC3(CC2)Oc2ccc(F)cc2C(=O)C32CC(c3ccc(Cl)cc3)=NO2)s1 (stereo not given),0.3,-0.2%,-1.8,-7,2,9
CC1(C)CC(NC(=O)c2cc(COc3cccc(C(F)(F)F)c3)on2)CCO1 (stereo not given),0.7,-1.2%,-1.8,7,/,2
O=C(C[C@H]1C/C=C\C[C@@H](NC(=O)OCC2c3ccccc3-c3ccccc32)C(=O)O[C@@H](c2ccccc2)CNC1=O)N[C@H](CO)Cc1ccccc1,-0.5,-1.2%,-4.0,-10,6,16
COc1ccc(C2C(=O)N(C3CCCCCC3)CC(=O)N2Cc2ccccc2)cc1OC (stereo not given),0.8,0.4%[38.3 µM],-4.2,-1,-1,12
CCCCN1C(=O)C(O)(c2c[nH]c3ccccc23)c2cc(Br)ccc21 (stereo not given),0.5,7.9%,/,/,/,-7
N=c1c(C(=O)NCc2ccc(F)cc2)cc2c(=O)n3ccccc3nc2n1CCCN1CCOCC1,0.8,-0.3%,-4.0,-4,-1,-10
O=S(=O)(Cc1ccccc1)N(O)c1ccccc1,-0.9,-0.7%,-1.8,6,4,0
COc1cccc(NC(=O)CN(C)C(=O)c2cccnc2Sc2ccc(C)c(C)c2)c1,2.3,2.5%,-0.4,-5,3,11
COc1cccc(-c2cccc(-c3nc(C(=O)NCc4ccc5c(c4)OCO5)cc4c3[C@H](CCO)N(S(=O)C(C)(C)C)C4)c2)c1 (stereo not given in full),1.3,2.0%,9.7,-12,-3,/
Nc1cccc2c(O)cccc12,0.1,1.3%,?,-11,-1,-14
O=[N+]([O-])c1cc([N+](=O)[O-])c(Oc2cccc(Cl)c2Cl)cc1NN1CCCCC1,-0.2,-0.2%,-0.9,-7,2,-9

# A few values from the list.
# Value of Cc1ccc(CN(C(=O)c2sc3ccccc3c2Cl)C2CCS(=O)(=O)C2)cc1 (stereo not given) under TRPML1 blocker: 4
# Value of COc1ccc(S(=O)(=O)Nc2cc3c(C(=O)OC(C)C)c(C)oc3c3ccccc23)cc1 under TRPML1 agonist: 25
# Value of Cc1c(NC(=O)c2ccc(Br)s2)c(=O)n(-c2ccccc2)n1C under PINK1 expr mod: 1.5%
# Value of CCN(CC(=O)NCc1cccnc1)S(=O)(=O)c1ccc(OC)cc1 under TRPML1 blocker: -20

# Continued:
SMILES,TRPML1 agonist,PINK1 expr mod,D2 agonist,Six1-Eya2 inh,CtBP-E1A inh,TRPML1 blocker
Cc1c(Cl)cccc1NC(=O)C1CCCN(C(=O)c2cnn(-c3ccccc3)c2-n2cccc2)C1 (stereo not given),0.6,3.4%,/,/,/,7
Cc1ccccc1S(=O)(=O)/N=C(/Nc1nc2ccccc2s1)c1ccccc1,0.7,5.7%,2.8,-3,-3,-5
CCOC(=O)C1=C(CN2CCN(c3ccccc3F)CC2)NC(=O)NC1c1ccc(Cl)cc1 (stereo not given),-0.9,-0.3%,/,/,/,18
NC(=O)C1(N2CCCCC2)CCN(C(=S)Nc2ccc(F)cc2)CC1,0.9,0.6%,-0.5,4,4,-7
COc1cccc(CNC(=O)CCNS(=O)(=O)c2cccc3nsnc23)c1,0.2&1.2,-0.5%&1.0%,-2.2,0,-6,13&-7
O=C(NN1CCOCC1)c1ccc(Cl)c(Cl)c1,-0.4,0.1%,-4.2,5,6,3
C=C(C)C(=O)Nc1ccc(NC(C)C)cc1,0.2,0.9%,-7.1,-1,/,-6
COc1ccccc1C(=O)NC(=O)COC(=O)CNC(=O)c1ccccc1,1.4,0.3%,-6.8,-2,8,25
COCc1c(C(=O)N/N=C(\C)c2ccncc2)nnn1-c1nonc1N,1.1,1.0%,5.3,6,/,-1
Cc1ccc(OCc2nc3c4c(ncn3n2)-c2ccccc2CC42CCCC2)cc1,-0.2,11%,-1.8,0,1,-7
Cc1ccc(C)c(-c2ccc(=O)n(C(C)C(=O)Nc3ccccc3C(F)(F)F)n2)c1 (stereo not given),1.8,0.7%,/,/,/,8
Cn1c(=O)[nH]c(=O)c2c1nc(N1CCN(Cc3ccccc3)CC1)n2CCCc1ccccc1,1.2,27%[38.3 µM],-1.8,-7,-18,7
O=C(Nc1ccccc1C(=O)NCCN1CCOCC1)c1cccc([N+](=O)[O-])c1,-0.4,1.2%,-0.5,7,0,-16
CCCCC(=O)NC(=S)NNC(=O)CCc1ccccc1,-0.1,-0.6%,-3.6,-4,1,20
Fc1ccc(-c2cn3cc(Cc4ccc(Cl)cc4)sc3n2)cc1,1.1,7.6%,/,/,/,0
c1ccc(OCCCn2nnc(-c3ccncc3)n2)cc1,0.3,/,-3.4,1,8,17
CC(OC(=O)c1cccnc1Cl)C(=O)NC1CCCCC1 (stereo not given),-0.1,0.2%,-3.6,2,-10,10
O=C(CCc1ccccc1)N[C@@H]1c2ccccc2CC[C@H]1OCc1ccccc1,3.4,8.9%,-2.5,0,-11,-1
CC(=O)Nc1ccc(S(=O)(=O)N2CCN(Cc3nc4sc(C)c(C)c4c(=O)[nH]3)CC2)cc1,/,?,-4.7,2,2,/
CC(C)OC(=O)C1CC(C)(O)C(=O)C(C(=O)OC(C)C)C1c1ccc([N+](=O)[O-])cc1 (stereo not given),0.5,-0.3%,-0.2,-7,-4,43
Cc1ccc(C(=O)c2cn(Cc3cccc(F)c3)c3nc(C)ccc3c2=O)cc1,-0.7,0.1%,/,/,/,20
CC(=O)c1sc(NC(=O)C2CCN(C(=O)c3ccc(F)cc3)CC2)nc1-c1ccccc1,3.7,4.1%,-2.4,-8,-1,32
Cc1ccc(CNC(=O)C2CCCN(S(=O)(=O)c3cccc4nsnc34)C2)cc1 (stereo not given),-1.1,2.4%,/,/,/,39
S=C(NCc1ccco1)Nc1ccc(Cl)cn1,-0.7,1.4%,-4.6,-14,-18,-5
CC1CN(C(=O)COC(=O)c2ccc(C#N)cc2)CC(C)O1 (stereo not given),1.5,-0.7%,1.7,2,-2,-6
SMILES,TRPML1 agonist,PINK1 expr mod,D2 agonist,Six1-Eya2 inh,CtBP-E1A inh,TRPML1 blocker
Fc1ccc(-c2nc3c4ccccc4ccn3c2Cc2cccc(Cl)c2)cc1,2.8,0.2%,0.8,-11,-12,/
COc1ccc(S(=O)(=O)N2CCN(C(=O)CCC3CCCC3)CC2)cc1,1.8,0.2%,1.7,2,5,13
CCN(CC)S(=O)(=O)c1cc(C(=O)Nc2cc(C)on2)ccc1Cl,0.8,0.8%,-2.2,-4,1,-4
Cc1ccn(CCC(=O)N2CCCC(CCC(=O)NCc3ccc(F)c(F)c3)C2)n1 (stereo not given),-0.6,0.1%,-0.1,10,7,-1
CCOc1ccc(N(CC(=O)NCc2ccccc2Cl)S(=O)(=O)c2c(C)[nH]c(=O)[nH]c2=O)cc1,-0.6&1.7,1.4%&0.9%,0.6,0,-1,0&5
Cc1ccc(NC(=O)c2cc(N(C)C)ccc2[P+](=O)O)cc1,0.1,/,-2.7,3,8,-2
Cc1cccc(-n2nnnc2-c2cnccc2C(F)(F)F)c1C,0.3,-0.4%,-3.7,1,3,-12
NC(=O)Nn1c(CCC(=O)O)ccc1-c1ccc(Br)cc1,0.9,1.7%[38.3 µM],-1.6,-1,-2,34
Cn1nc(C(=O)NCCc2ccc(Cl)cc2)c2c1-c1ccccc1S(=O)(=O)C2,2.5,5.4%,-1.5,0,0,52
CCOc1ncccc1C(=O)NCc1cccc(OC)c1,-0.3,0.3%,-3.5,0,-17,-5
COc1ccc(CCNC(=O)CSc2ncc(C(=O)Nc3ccccc3)c(=O)n2C)cc1,0.9,6.9%,-6.1,0,0,10
N#C/C(=C\c1cn(-c2ccccc2)nc1-c1ccccc1)S(=O)(=O)c1ccccc1,-0.2,14%,-3.1,6,10,-11
COc1cccc(NC(=O)CSc2ccc(-c3ccco3)nn2)c1,2.0,-1.3%,2.4,-19,-4,29

# Entries above with a cyano group, in the order listed:
SMILES,TRPML1 agonist,PINK1 expr mod,D2 agonist,Six1-Eya2 inh,CtBP-E1A inh,TRPML1 blocker
COc1cc2c(cc1OC)C1=C(C#N)COCN1CC2,-0.7,-0.8%,-2.5,-12,-6,-3
CC1CN(C(=O)COC(=O)c2ccc(C#N)cc2)CC(C)O1 (stereo not given),1.5,-0.7%,1.7,2,-2,-6
N#C/C(=C\c1cn(-c2ccccc2)nc1-c1ccccc1)S(=O)(=O)c1ccccc1,-0.2,14%,-3.1,6,10,-11

# Screening results (PubChem)
